# From PubChem BioAssay
# BJeLR viability: MLPCN primary cell-based screen for lethality selective to Ras in HRASV12 cells | BJeLR (HRASV12) viability, CellTiter-Glo ATP luminescence, 48 h; reference of the scale not given here | inhibition, % (no concentration beside the values) | 300,000 tested, 0.17% active;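 active means replicate mean above 50%; inconclusive means above 50% but judged a plate artefact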;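 further: 50 nL library stock added to about 25 µL; numbers are from one replicate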
# Mtb hypoxia inh: PubChem AID 1159583 | fluorescence inhibition, % (test concentration not listed) | 300,000 tested, 0.1% active | M. tuberculosis hypoxia-regulated fluorescent reporter, fluorescence;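 active means 35 to 45% if threefold the growth effect, above 45% if 1.5-fold the growth effect; inactive means the rest, general growth blockers included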;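 further: wells of about 50 µL received 100 nL stock; 0% = vehicle wells and 100% = reference inhibitor wells; whole bacteria with a GFP reporter of the hypoxia response; strong numbers were not always called active; many hits fall short of the cut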
# Autofluor counter: flagged as autofluorescent in microsphere protease counterscreen | compound autofluorescence counterscreen, microsphere flow cytometry; hits give high values | fluorescence intensity (test concentration not listed) | 360,000 tested, 3.1% active;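 active means at least 3 SD above the mean of all compounds, about 16000 in these data; inconclusive means too few beads counted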;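 further: 100 nL of 1 mM stock went into each well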
# PrP 5UTR inh: inhibition of PrP 5' UTR reporter expression; 340,000 tested, 0.35% active; cell-based PrP 5' UTR mRNA reporter, plate reader; AID 488862, 2010; inhibition, % (no concentration beside the values);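 active means every replicate at 50% or more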;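 further: 0 = median of the neutral control wells; tested in H4 reporter cells; numbers are from one replicate; inactives centre near -14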
# ugtP null kill: growth inhibition of ugtP-null S. aureus, primary screen, RN4220 ugtP deletion, OD600 | 16 h; some inactives read as strong as hits | growth inhibition, % (no concentration beside the values) | 330,000 tested, 0.54% active;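 active means z-score under -3 and OD600 up to 0.15 on both plates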;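 further: plate controls were untreated wells for no effect and antibiotic for full effect; wells of about 80 µL received 100 nL stock; the first replicate is given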
# RN4220 kill: growth inhibition of S. aureus RN4220, primary screen, OD600. 16 h. inhibition, % (test concentration not listed). 330,000 tested, 0.33% active;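 active means z-score of -3 or lower and OD600 up to 0.18 on both plates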;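 further: plate controls were untreated cells for no effect and reference antibiotic for full effect; stock transfer was 100 nL into about 80 µL; one replicate is shown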
# Mtb hypoxia inh growth: recorded beside Mtb hypoxia inh, whose call it bears; growth inhibition, %; measured here: M. tuberculosis growth (absorbance);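 0% = vehicle and 100% = reference antibiotic; read after six days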
# * marks the source's active call; other numbers are inactive results; ? = inconclusive; . = not tested or not shown.
SMILES,BJeLR viability,Mtb hypoxia inh,Mtb hypoxia inh growth,Autofluor counter,PrP 5UTR inh,ugtP null kill,RN4220 kill
CC1Sc2ccc(S(=O)(=O)CCC(=O)Nc3cc(F)ccc3F)cc2NC1=O (stereo not drawn),-3,9,1,5310,-22,-1,5.4
CCC(C)NC(=O)COc1ccc(Br)c(C)c1 (stereo not drawn),1,4,10,20456*,-26,-3,-2.7
COCCCn1c(=O)c2sccc2n(Cc2cccc(F)c2)c1=O,-2,7,-14,3821,-6,9,1.2
O=c1[nH]ncc(N2CCCCCC2)c1Cl,-1,12,0,4189,-26,4,6.9
CC(=O)N=C1SC2CS(=O)(=O)CC2N1c1c(Cl)cccc1Cl (stereo not drawn),.,.,.,4836,-29,4,-1.2
CC1(CCc2ccc3c(c2)OCO3)NCCc2c1[nH]c1ccccc21 (stereo not drawn),0,-1,12,4090,-7,-10,0.3
COc1cc(-c2nnc(SCC(=O)Nc3ccc4c(c3)OCCO4)o2)cc(OC)c1OC,11,4,6,5494,-33,4,3.6
COc1cc(Br)cc2cc(C(=O)N3CCN(c4ccccn4)CC3)c(=O)oc12,6,10,12,23664*,-17,-10,8.0
Cc1cccc(C)c1NC(=O)CN(C)C(=O)c1ccc2nc[nH]c2c1,-1,-2,-1,.,-5,-5,0.1
Cc1ccc(NC(=O)c2ccc(CNS(=O)(=O)c3cccc(C(F)(F)F)c3)cc2)cc1,0,.,.,2856,-15,-3,2.1
COc1ccc(CCN2C(=O)C3C4C=CC(C5CC45)C3C2=O)cc1OC (stereo not drawn),12,2,6,4674,-6,2,3.3
COc1ccccc1/C=C/C(=O)Nc1cccc(C(C)=O)c1,-14,12,3,2496,-3,6,0.8
CCOc1ccc(CCNC(=O)COC(=O)c2ccc(Cl)nc2)cc1OCC,-4,16,7,6027,-23,6,4.7
CCN(C(=O)Cc1c(C(=O)O)n(CC)c2ccccc12)c1ccccc1C,7,10,3,2742,-2,1,12
COC(=O)C(O)(c1ccc(N(C)C(=O)COc2ccccc2)cc1)C(F)(F)F (stereo not drawn),18,4,10,2823,-30,-13,8.8
COc1ccc(NCC(=O)NN=Cc2c(C)nn(Cc3ccccc3)c2Cl)cc1,.,8,10,.,.,3,-3.2
O=[N+]([O-])c1cccc(C(=NCc2ccccc2)NO)c1,-2,1,-5,4175,-13,-1,3.6
CC(=O)c1cc(C(=O)N2CCCC(C(=O)c3ccc(Cl)cc3)C2)cs1 (stereo not drawn),6,2,2,5429,-19,-1,2.1
Cc1nc(C(F)(F)F)c(C(=O)N/N=C(\N)c2ccccn2)s1,-5,.,.,5197,4,.,.
COCCn1nnnc1SCC(=O)Nc1ccc2c(c1)OCO2,0,18,13,4490,-22,8,4.2
Cn1c(=O)[nH]c(=O)c2c1nc(NCCN)n2CCOc1ccccc1,-4,6,3,3286,-23,8,-2.2
CCC(=O)Nc1ccc(NC(=O)CSc2nc3cc4c(cc3cc2C)CCC4)cc1,-6,23,8,9134,8,-8,23
O=C(NN=Cc1ccc(Br)cc1)c1ccc(NC(=O)c2ccccc2)cc1,.,-1,-8,.,.,1,0.9
COc1ccc(-n2c(O)c(/C=N/NS(=O)(=O)c3cc(C)ccc3C)c3ccccc3c2=O)cc1OC,-4,.,.,17279*,-22,.,.
CC(C)c1ccc(Nc2nnc(SC3CCOC3=O)s2)cc1 (stereo not drawn),17,8,8,8178,-14,4,7.8
NC(C(=O)O)C(c1ccccc1)C(F)F (stereo not drawn),-13,3,-15,.,.,0,5.8
COc1ccc(OC)c(/C=N/NC(=O)CC2C(=O)NN=C2C)c1 (stereo not drawn),3,.,.,2439,-5,.,.
Cc1cc(C)c(S(=O)(=O)N(CC(=O)N2CCOCC2)C2CCCCC2)c(C)c1,-4,18,6,3596,-12,10,9.9
CCOC(=O)N1CCN(C(=O)C2CCC(CNS(=O)(=O)c3ccccc3)CC2)CC1 (stereo not drawn),0,12,7,2838,-8,-1,-14
O=C(Nc1nncs1)c1cccc(S(=O)(=O)N2CCCC2)c1,-7,12,8,6770,-1,9,5.2
COc1ccc(C(O)(c2ccccc2OC)C(CN2CCOCC2)c2ccccc2)cc1 (stereo not drawn),.,15,13,3405,-20,1,4.8
Cc1c(NC(=O)C(C)Oc2ccccc2F)c(=O)n(-c2ccccc2)n1C (stereo not drawn),-5,1,-5,3866,-18,8,-0.5
Cc1ccc(-n2c(SCC(=O)Nc3cc(C)on3)nc3c([nH]c4ccccc43)c2=O)cc1,3,-2,3,6038,-26,18,7.6
CC(=O)C1=C(c2ccccc2)NC(=O)NC1c1ccccc1OCC#N (stereo not drawn),-7,10,6,7424,8,-2,3.7
COc1cc(S(=O)(=O)N2CCCCCC2)ccc1Cl,-4,.,.,4876,2,4,2.9
O=C(Nc1ccccc1)c1ccc(NCCc2ccccc2)c([N+](=O)[O-])c1,-19,-10,-18,2010,-16,-10,3.7
CC(C)(C)c1ccc(S(=O)(=O)N2CCC(NC(=O)c3ccco3)CC2)cc1,-4,-4,13,5505,-36,1,-0.2
Cc1oc2c(c1C(=O)NCCCC(=O)O)CCCC2,6,2,-1,10589,-21,2,2.7
c1ccc2cc3[nH]c(CN4CCCCC4)nc3cc2c1,-2,4,16,5434,-37,0,-9.8
COc1ccc(CCNc2oc(-c3ccccc3OC)nc2C#N)cc1,20,10,-3,2802,-15,8,12

# 5 records drawn at random from those above:
SMILES,BJeLR viability,Mtb hypoxia inh,Mtb hypoxia inh growth,Autofluor counter,PrP 5UTR inh,ugtP null kill,RN4220 kill
COc1ccccc1/C=C/C(=O)Nc1cccc(C(C)=O)c1,-14,12,3,2496,-3,6,0.8
COCCCn1c(=O)c2sccc2n(Cc2cccc(F)c2)c1=O,-2,7,-14,3821,-6,9,1.2
O=C(NN=Cc1ccc(Br)cc1)c1ccc(NC(=O)c2ccccc2)cc1,.,-1,-8,.,.,1,0.9
COc1ccc(CCNc2oc(-c3ccccc3OC)nc2C#N)cc1,20,10,-3,2802,-15,8,12
COc1cc(S(=O)(=O)N2CCCCCC2)ccc1Cl,-4,.,.,4876,2,4,2.9

# New compounds follow.
SMILES,BJeLR viability,Mtb hypoxia inh,Mtb hypoxia inh growth,Autofluor counter,PrP 5UTR inh,ugtP null kill,RN4220 kill
NC(=S)Nc1ncc(CCN2CCOCC2)c(-c2ccc(F)cc2)n1,6,2,0,3303,-20,4,9.2
ClCc1nc2ccccc2n1Cc1ccccc1,4,21,16,13314,-11,-1,22
O=C(Nc1nnc(C2CC2)o1)c1ccc(S(=O)(=O)N2CCc3ccccc3C2)cc1,-6,6,2,2226,-36,1,25
O=C(CCCC(=O)OCC(=O)c1ccc(F)cc1)Nc1cc(C(F)(F)F)ccc1Cl,-4,3,6,20642*,-21,-2,5.5
Cc1ccc(NC(=O)CN2C(=O)C3C4C=CC(C4)C3C2=O)cc1S(=O)(=O)N(C)C (stereo not drawn),-21,-8,10,2509,-24,4,7.4
COc1cc(C2Nc3ccccc3C(=O)N2c2ccccc2)c(Br)cc1OCC(=O)O (stereo not drawn),1,3,-3,2057,-12,11,4.8
Cc1ccc(-n2c(SCC(=O)Nc3ccc4c5c(cccc35)CC4)nc(O)c(C)c2=O)cc1,8,1,4,2616,-7,8,12
CCN(CC)S(=O)(=O)c1ccc(N2CCN(c3cccc(OC)c3)CC2)c([N+](=O)[O-])c1,1,20,9,2000,-22,4,6.4
CCCCCCC(=O)N1CCN(c2cc3c(cc2F)c(=O)c(C(=O)O)cn3CC)CC1,-2,.,.,3236,-17,.,.
O=C(c1ccc(COc2ccccc2Cl)o1)N1CCN(c2ccccc2)CC1,-8,8,6,5888,-9,-9,6.9
COc1ccc2c(c1O)Cc1ccccc1C2=O,7,6,2,2071,-19,13,15
CC(C)(C)N1C(=O)c2ccccc2NC(=O)N1Cc1ccccc1,0,.,.,?,-20,3,3.7
O=C(CCN1CCOCC1)Nc1c(-c2ccccc2)c2cc(Br)ccc2[nH]c1=O,-8,11,4,8071,-8,14,8.1
Cn1c(SC2=CS(=O)(=O)c3ccccc32)nc2ccccc21,-5,.,.,4618,-14,3,3.6
Cc1ccc(N2C(=O)c3ccccc3C(C)(C)C2=O)cc1,19,7,17,3805,-14,12,1.1
O=C(COc1ccc(Cl)cc1)NCCNC(=O)c1ccccn1,-2,7,-8,3888,-22,7,-2.7
O=C(CCSc1ccccc1)Nc1nc2c(s1)CCCC2,-2,-8,-2,16047,-46,3,4.2
CS(=O)(=O)n1nc(OC(=O)c2cccc3ccccc23)cc1N,1,.,.,3445,-19,8,-1.1
C/C(=N/NC(=O)c1cc2ccccc2cc1O)C1C(=O)c2ccccc2C1=O,2,.,.,3430,-37,.,.
CCc1nnc(NC(=O)CSc2nc(-c3ccc(OC)cc3)ns2)s1,5,14,8,7898,-44,-15,7.8
COc1ccc(CCNC(=O)C2Cc3ccccc3C(=O)O2)cc1 (stereo not drawn),-3,-4,6,4516,-14,-2,4.3
C#Cc1ccc([C@@H]2C=C(C(=O)NCc3nc4ccccc4[nH]3)O[C@H](OCC)[C@H]2CCCO)cc1,12,.,.,3853,-14,.,.
COc1ccc(OCC(=O)NN=Cc2cccn2-c2cccc(C(=O)O)c2)cc1,.,5,2,.,.,9,4.5
Cc1c(C(=O)NCc2ccc(S(N)(=O)=O)cc2)oc2ccc(Cl)cc12,0,1,9,4947,-40,1,2.6
Fc1cccc(C=NNc2cc(N3CCOCC3)ncn2)c1,.,7,10,.,.,6,4.3
COc1ccc(C2C(C(=O)Nc3cc(C)on3)c3ccccc3C(=O)N2C)cc1 (stereo not drawn),3,-3,5,9725,-21,0,3.4
CCOC(=O)c1ncccc1NC(=O)CC(=O)Nc1cccnc1C(=O)OCC,-2,8,-6,?,.,3,6.8
C=C(C)CN(CC)CCC(=O)Nc1ccc(OC)cc1OC,5,3,10,6208,-28,-2,3.4
CCN(C1CCCCC1)S(=O)(=O)c1ccc(S(=O)(=O)NCc2ccncc2)cc1,6,3,2,10799,11,1,8.7
C#CCOCCOCCOCCNc1nc(N2CCN(C(=O)C(CCCCN)n3cc(CCCC)nn3)CC2)nc(N2CCN(C(=O)C(C(C)C)n3cc(CCO)nn3)CC2)n1 (stereo not drawn),.,8,9,.,.,-5,8.8
Cc1cc(C)c2oc(C(=O)N(Cc3ccccc3)C3CCS(=O)(=O)C3)cc(=O)c2c1 (stereo not drawn),4,13,-3,?,-11,19,3.4
CCOC(=O)c1sc2cccc(F)c2c1N,8,-6,-5,22763*,-28,18,13
COc1ccc(NC(=O)CCNS(=O)(=O)c2ccc3c(c2)c(=O)n(C)c(=O)n3C)cc1OC,4,-4,9,4465,-19,1,3.8
CC(C)C=NNC(=O)c1cccc(N2CCCC2=O)c1,.,-4,7,.,.,3,3.7
Clc1ccc(C2C3CN(CC4CCCCC4)C(c4ccccc4)C34CC2(c2cccnc2)C4)cn1 (stereo not drawn),.,-3,8,.,.,-3,2.4
CC1CN(C(C)CO)C(=O)c2cc(NS(C)(=O)=O)ccc2OC1CN(C)C(=O)Nc1ccc(F)cc1 (stereo not drawn),.,13,3,.,.,-1,6.2
COc1cc(Br)c(CCNC(=O)c2ccco2)cc1OC,8,3,3,2558,-20,-8,6.3
COc1cc(-c2nnc(-c3ccc(N4CCOCC4)cc3)o2)cc(OC)c1OC,-5,-3,-1,.,0,-2,-0.5
OCCN1CCN(CC#CCn2c3ccccc3c3ccccc32)CC1,0,20,16,3012,-26,7,5.2
CN1CCCN(c2ccc([N+](=O)[O-])cc2)CC1,0,11,0,4027,-24,6,3.4
O=C(c1ccc(F)cc1F)N1CCN(c2n[nH]c(=O)[nH]c2=O)CC1,0,4,1,4753,10,1,3.9
CN(C)C(CNC(=O)c1cccc(S(=O)(=O)Nc2ccc(Br)cc2)c1)c1ccco1 (stereo not drawn),-1,4,3,5307,-2,12,5.2
CCOC(=O)N1CCN(c2c(N3CCN(c4cc(C)ccc4C)CC3)c(=O)c2=O)CC1,-3,-4,-7,5655,-4,-11,5.1

# Compounds above that contain a tert-butyl group, in the order listed:
SMILES,BJeLR viability,Mtb hypoxia inh,Mtb hypoxia inh growth,Autofluor counter,PrP 5UTR inh,ugtP null kill,RN4220 kill
CC(C)(C)c1ccc(S(=O)(=O)N2CCC(NC(=O)c3ccco3)CC2)cc1,-4,-4,13,5505,-36,1,-0.2
CC(C)(C)N1C(=O)c2ccccc2NC(=O)N1Cc1ccccc1,0,.,.,?,-20,3,3.7
